Vaccinia mCherry – vaccinia inhibition (mCherry reporter). Vaccinia virus mCherry reporter infection, fluorescence; about a quarter of the inactives have no number. Potency, µM (highest dose often 36.5 µM), for inactives: top-dose activity change, negative = inhibition, actives largely listed as inhibitors. 310,000 compounds, 0.63% hits; active = well fitted inhibition curve with a large enough effect; inconclusive = small, poorly fitted or top-dose-only effect; inactive = no such curve, though single readings can be large or run the other way; tested in A549 cells; also: nearly all actives have a fitted effect of over 35% in size; inactives centre near -10
VACV Venus inh – inhibitors of vaccinia virus (Venus reporter); Vaccinia virus Venus reporter expression, fluorescence; AID 720580; Potency, µM (top dose mostly 36.5 µM), inactives show at the top dose activity change, negative = inhibition, actives largely listed as inhibitors; 330,000 compounds, 0.46% hits; active means well fitted inhibition curve with a large enough effect; inconclusive means small, poorly fitted or top-dose-only effect; inactive means no such curve, though single readings can be large or run the other way; tested in A549 cells; also: nearly all actives have a fitted effect of over 30% in size; inactives centre near -10
* hit, by the source's call; i = inactive; u = inconclusive; x = not tested or not shown; & = joins results of further samples; [ ] = dose if it differs, or a comment. % is scaled to controls: 0 for no effect and ±100 for the full control effect; potency is read from the fitted curve at half-maximal effect. Not a hit list; any-hit rate near 0.87%.

| SMILES | Vaccinia mCherry | VACV Venus inh |
| --- | --- | --- |
| CC(NCc1ccc2c(c1)OCO2)C(=O)N1CCc2ccccc21 (stereo not drawn) | i | -15.0% |
| CCOc1cc(C(=O)N2CCCC2)cc(OCC)c1OCC | -13.8% | -13.1% |
| COc1ccc(-c2cc(-c3ccccc3)[n+](C)c(-c3ccccc3)c2)cc1 | i | -10.5% |
| CCOP(=S)(OCC)SCn1c(=O)oc2cc(Cl)ccc21 | -22.7% | -25.4% |
| CCc1cc2c3c([nH]c2cc1S(=O)(=O)N1CCC2(CC1)OCCO2)CCCC3=O | u | -24.5% |
| Cc1ccc(N2C(=O)[C@@H]3C(C(=O)CN4C(=O)c5ccccc5C4=O)=NN[C@@H]3C2=O)c(C)c1 | -6.3% | 5.7% |
| O=C(CSCc1ccccc1Br)NC1CC1 | i | 1.5% |
| CC(=O)Nc1ccccc1-c1nc(CNC(=O)c2ccc(F)c(F)c2)c(C)o1 | i | -1.4% |
| O=C1CC(N2CCCCCC2)C(=O)N1c1ccc2c(c1)OCO2 (stereo not drawn) | i | -16.1% |
| CC(OC(=O)CNC(=O)COc1ccccc1)C(=O)N(C)Cc1ccccc1 (stereo not drawn) | i | -6.7% |
| Cn1c(Cc2nc3ccccc3n2C)nc2ccccc21 | i | -9.7% |
| COc1ccc(C(=O)Nc2ccc(Cl)cc2C(=O)N2CCOCC2)cc1 | i | -11.0% |
| NS(=O)(=O)c1ccc(NC(=O)CSc2nc3ccccc3n2-c2ccccc2)cc1 | -11.5% | -29.2% |
| CC(C)CC(NC(=O)C1CCCCC1)C(=O)Nc1cccc(C(F)(F)F)c1 (stereo not drawn) | -0.7% | -11.9% |
| CCOc1ccc(CCNC(=O)CCc2c(C)nc3c(c(C)nn3-c3ccccc3)c2C)cc1OCC | u | -21.6% |
| N#CCc1c(C#N)c(N)nc(N2CCOCC2)c1C#N | i | -9.8% |
| COc1cccc(-c2cc(C(F)(F)F)n3nc(C)c(-c4ccccc4)c3n2)c1 | -5.6% | -1.5% |
| COC(=O)NNC(=S)NCc1ccc(C)cc1 | -12.0% | -10.6% |
| COc1ccc(Nc2cc(C(=O)NCc3ccccc3)c3ccccc3n2)cc1 | 0.0% | -2.5% |
| COc1ccc(CN2CCOCCOCCOCC2)cc1 | -12.7% | -3.4% |
| CC(C)N(C(=O)Cn1c(SCC(=O)NC2CC2)nc2ccccc21)C(C)C | i | -5.9% |
| Cc1ccc(CNC(=O)C2CCC(=O)N(CCc3cccc(F)c3)C2)s1 (stereo not drawn) | -24.5% | -16.0% |
| Cc1c(Cl)cccc1NC(=O)c1cnc2sc(N3CCCC3)nn2c1=O | -12.8% | -4.0% |
| CCc1ccc2oc(-c3cc(N)ccc3Cl)nc2c1 | -6.6% | -10.4% |
| CC1CCCCC1NC(=O)CC1Oc2ccccc2NC1=O (stereo not drawn) | 6.6% | -1.3% |
| O=C(NCc1ccccc1C(F)(F)F)c1cccc2c1C(=O)c1ccc(N3CCC(N4CCCCC4)CC3)cc1S2(=O)=O | u | u |
| COc1cc2c(c(OC)c1OC)-c1ccc(OC)c(=O)cc1C(NC(=O)c1ccccc1)CC2 (stereo not drawn) | u | u |
| Cc1nnsc1C(=O)NNC(=O)c1ccc(C(F)(F)F)cc1 | i[7.34 µM] | -6.0%[7.34 µM] |
| CCC1C(=O)C(C)(C)C(=O)OC1c1ccc([N+](=O)[O-])cc1 (stereo not drawn) | -7.9% | -16.6% |
| CSc1cccc(CN2CCCC(CNC(=O)c3ccco3)C2)c1 (stereo not drawn) | -13.0% | -10.5% |

As entered above:
In VACV Venus inh, Cc1nnsc1C(=O)NNC(=O)c1ccc(C(F)(F)F)cc1 is entered as -6.0%[7.34 µM]
In VACV Venus inh, Cc1ccc(CNC(=O)C2CCC(=O)N(CCc3cccc(F)c3)C2)s1 (stereo not drawn) is entered as -16.0%

Going on with the list.
| SMILES | Vaccinia mCherry | VACV Venus inh |
| --- | --- | --- |
| CCOC(=O)CNC(=O)N1CCCC(C(=O)c2cc(C)c(OC)c(C)c2)C1 (stereo not drawn) | i | 0.9% |
| O=C1CCN(Cc2ccccc2)CCN1[C@H](CO)c1ccccc1 | -3.9%&-8.6% | -15.3%&-14.0%&-18.6% |
| CCc1noc(C)c1C(=O)Nc1ccccc1C(C)(C)C | i | 1.5% |
| O=C1C(=O)N(CCN2CCOCC2)C(c2ccc(Cl)cc2)/C1=C(/O)c1ccc(S(=O)(=O)N2CCOCC2)cc1 (stereo not drawn) | i | -11.8% |
| CC(C)(C)NC(=O)CN(C(=O)CCN1CCCc2ccccc21)C(C)(C)C | i | -0.1% |
| COc1cccc(C(C(=O)NCc2ccccc2)N(C(=O)Cn2nnc3ccccc32)c2cccc(C(C)=O)c2)c1 (stereo not drawn) | -15.0% | -10.0% |
| Cc1cccc2nc(CSc3nc4ccccc4o3)cn12 | -5.2% | -3.9% |
| CN(C)C1C(=O)c2ccccc2C1=O | i | 0.9% |
| COCCn1c(CCc2ccccc2)n[nH]c1=S | i | -7.1% |
| NC(=O)c1ccccc1NC(=O)c1ccccc1F | -20.4%[1.46 µM] | -6.5% |
| Cc1c(NS(=O)(=O)c2cccc(C(=O)NCc3ccccc3Cl)c2)c(=O)n(-c2ccccc2)n1C | -14.5% | -5.6% |
| C=CCNCCCOc1ccc(Cl)cc1C(C)(C)C | -27.2% | -17.8% |
| CCN(C(=O)COC(=O)CNC(=O)C12CC3CC(CC(C3)C1)C2)C1CCS(=O)(=O)C1 (stereo not drawn) | i | -6.7% |
| COc1ccc(OC)c(S(=O)(=O)NC2CC(=O)N(c3cccc(F)c3)C2)c1 (stereo not drawn) | -9.1% | -2.2% |
| CCC(c1nnnn1C1CCCC1)N1CCC(C(N)=O)CC1 (stereo not drawn) | -0.6% | -7.8% |
| CCC(=O)c1ccc(OCC(=O)N2CCN(CC(=O)Nc3ccccc3C(F)(F)F)CC2)cc1 | i | -9.2% |
| NC(=O)C1=C[C@@H](c2coc3ccccc3c2=O)C[C@@H](OCCCCO)O1 | i | -21.7% |
| Cc1cccc(CSC2=CS(=O)(=O)c3ccccc3N2)c1 | -0.7% | -12.8% |
| C[C@@H]1C[C@H]2[C@@H]3CCC4=CC(=O)C=C[C@]4(C)[C@@]3(F)C(O)C[C@]2(C)[C@@]1(O)C(=O)CO (stereo partly drawn) | -23.5% | -14.0% |
| CCOC(=O)CNC(=O)CSc1nc(-c2ccc(OC)cc2)ns1 | -15.6% | -6.3% |
| O=C(O)c1c[nH]c(=O)c2ccccc12 | -14.3% | -9.3% |
| O=c1c2sc3ccccc3c2n(Cc2cccc(Cl)c2)c(=O)n1Cc1ccco1 | -7.5% | -10.2% |
| C/C(=N\NC(=O)c1cccc(Br)c1)c1cccc(NC(=O)c2ccc(C)o2)c1 | -8.2% | -20.4% |
| CN(CC(=O)Nc1cccc(F)c1)C(=O)c1cc([N+](=O)[O-])ccc1N1CCOCC1 | -15.5% | -8.4% |
| COc1cc(C(CCN2CCCCC2)c2c(OC)cc(OC)c3c(C)cc(=O)oc23)cc(OC)c1OC (stereo not drawn) | 17.8% | -17.3% |
| Cc1cccc2c1N(Cc1ccccc1OCCC(C)C)C(=O)C2=O | -27.8% | -26.7% |
| CCCCn1cc(S(=O)(=O)c2ccccc2)c(=O)c2cc(F)c(N3CCN(CCC)CC3)cc21 | -15.1% | -10.1% |
| C#CCN(C[C@H]1[C@H](OC(=O)NC2CC2)[C@H](OC(=O)NC2CC2)C[C@@H](C(=O)OC)[C@H]1C(=O)OC)S(=O)(=O)c1ccc(C)cc1 | -26.4% | -20.5% |
| CCOC(=O)N1CCc2c(sc3c2c(=O)n(Cc2ccccc2)c(=O)n3Cc2ccccc2Cl)C1 | -28.8% | -21.9% |
| Oc1ccc(Br)cc1CNc1ccccn1 | -6.2% | -4.9% |
| CCN(Cc1nc(-c2cccc(C)c2)no1)C(=O)c1ccc2c(c1)OCO2 | -17.2% | -7.3% |
| Cc1ccc(NC(=O)Nc2cc(C(F)(F)F)c[nH]c2=O)cc1 | -1.9% | -9.4% |
| O=C(CCC(=O)N1CCN(S(=O)(=O)c2ccccc2Cl)CC1)c1ccccc1 | i | -13.4% |
| COc1ccc(-c2noc(CN(C)S(=O)(=O)c3c(C)cc(C)cc3C)n2)cc1OC | -11.5% | -1.0% |
| O=C(Nc1ccccc1)C1=C(O)CC(c2ccc(Cl)cc2)N2CCN=C12 (stereo not drawn) | i | -23.0% |
| CCN1CCc2nc3sc(C(=O)N4CCc5ccccc5C4)c(N)c3cc2C1 | u | 3.7% |
| Cc1ccc(NC(=O)C2CCCN2S(=O)(=O)c2cccc3cccnc23)c(C)c1 (stereo not drawn) | -14.4% | -10.8% |
| C=CCOC(=O)C1=C(C)NC2(O)c3ccccc3C(=O)C12O (stereo not drawn) | x | 11.2% |
| Cc1c(C(=O)N2CCc3ccccc3C2)oc2ccc(S(=O)(=O)N3CCCCCC3)cc12 | -18.8% | u |
| COc1ccc(C)cc1NC(=O)C(=O)NCC(c1cccnc1)N1CCc2ccccc21 (stereo not drawn) | -16.6% | -15.3% |
| CCOC(=O)N1CCc2c(sc(NCc3cc(OC)ccc3OC)c2C(=O)Nc2cc(OC)ccc2OC)C1 | -7.4% | -8.5% |
| N#Cc1ccc(NC(=S)NC(=O)C2CCCCC2)cc1 | -7.1% | -18.1% |
| CC1(C)Cc2c(oc3ncn4ncnc4c23)CO1 | x | -17.6% |
| O=C(C1CCC(Cn2c(=O)c3sccc3n(Cc3cccc(F)c3)c2=O)CC1)N1CCCCC1 (stereo not drawn) | -27.7% | -25.2% |
| COc1ccccc1C(=O)NNC(=O)C(=O)N1CCCCC1 | -19.3% | -9.3% |
| Cc1cc2nc(N3CCN(C(=O)c4ccco4)CC3)sc2cc1C | -9.8% | -7.6% |
| CCOC(=O)c1ccccc1NC(=O)c1cc2c(s1)-c1ccccc1SC2 | -5.4%[7.34 µM] | -4.7%[7.34 µM] |
| Cc1ccc(N2CCN(C(=S)c3ccc(-c4ccccc4[N+](=O)[O-])o3)CC2)cc1 | -7.7% | -0.1% |
| COc1ccc(NC(=O)N(C)C[C@@H]2OCc3ccccc3-c3c(n(C)c4ccccc34)C(=O)N([C@H](C)CO)C[C@H]2C)c(OC)c1 | -28.3% | u |
| CCOCCCN1C(=O)CN(C2CCCCCC2)C(=O)C1c1ccc(OC(C)C)c(OC)c1 (stereo not drawn) | -7.6% | -7.7% |
| Cc1ccc(NC(=O)c2oc3ccc(Br)cc3c2C)cc1S(=O)(=O)N1CCOCC1 | -7.2% | 1.6% |
| CC(C)=CCC[C@H](C)C[C@@H]1Cc2[nH][nH]c(=O)c2[C@@H](c2ccc(F)cc2)O1 | 13.8% | -13.2% |
| Cn1c(NCc2ccccc2Cl)nc2ccccc21 | -6.2% | -10.1% |
| O=C(NCCN1CCC(n2c(=O)[nH]c3ccccc32)CC1)c1ccc(OC(F)(F)F)cc1 | -1.2% | 2.1% |
| COc1ccc(S(=O)(=O)NCc2ccc3c(c2)cc(C)n3C)cc1 | -14.3% | -7.2% |
| CCOCCC(=O)Nc1ccc2c(c1)c(=O)n(C)n2C/C=C/c1ccccc1 | -1.9% | u |
| COc1cc(OC)c2nc(-c3cc4c(c(OC)c3)OCCN(C(=O)CC3NC(=O)c5ccccc53)C4)cc(C)c2c1 (stereo not drawn) | -9.7% | -9.9% |
| CCCNC(=O)NC(=O)COC(=O)/C=C/c1cc(Br)ccc1F | -10.3% | -13.5% |
| CC1CCCN(CCC(=O)Nc2ccc(F)c(F)c2)C1 (stereo not drawn) | i | -21.5% |
| CSc1ccc(CN2CCC2(C)C(=O)NC2CCc3ccccc32)cc1 (stereo not drawn) | -2.5% | -26.1% |

The list goes on:
| SMILES | Vaccinia mCherry | VACV Venus inh |
| --- | --- | --- |
| CCOC(=O)Cn1c(=NC(=O)c2sc3ccccc3c2Cl)sc2cc(S(N)(=O)=O)ccc21 | -4.2% | 3.3% |
| O=C(Nc1ccc(Oc2cccnc2)nc1)c1ccc(C(F)(F)F)cc1 | -14.9% | -11.0% |
| CC(=O)N(CCC(c1ccccc1)c1ccco1)Cc1cccs1 (stereo not drawn) | -6.7% | -29.8% |
| CC(C)(C)OC(=O)N[C@@H](CC(=O)OCc1ccccc1)C(=O)O | -12.4% | 3.0% |
| CCCn1c(=O)c2[nH]c(-c3ccc(S(=O)(=O)O)cc3)nc2n(CCC)c1=O | i | -15.8% |
| COc1ccc(CCN=C(N)NS(=O)(=O)c2ccc(C)c(C)c2)cc1OC | -2.6% | -8.8% |
| CCNc1nc(SCCOc2ccccc2)nc(N(C)C)n1 | -19.7% | -12.3% |
| Cc1ccc(SCc2c(C(=O)N/N=C/c3ccco3)nnn2-c2nonc2N)cc1 | u | u |
| COc1ccc(OC)c(NC(=O)CSc2nncc(=O)n2N)c1 | -22.6% | -14.3% |
| COc1cc(/C=N/NC(N)=O)c(Br)cc1OCC(=O)Nc1ccccc1C | -12.2% | -4.0% |
| O=C(N/N=C/c1ccco1)c1ccn[nH]1 | u | -17.3% |
| COc1ccc(C(=O)NCCSc2c(C)[nH]c3ccccc23)cc1 | -11.8% | -11.6% |
| Cc1ccccc1-n1ncc2c1CC(C)(C)CC2NC(=O)CCC(F)(F)F (stereo not drawn) | -11.7% | -0.5% |
| O=C(CN(CC1CCCO1)C(=O)CNS(=O)(=O)c1ccc(F)cc1)NC1CCCC1 (stereo not drawn) | i | -2.5% |
| CC(C)(C)OC(=O)NCCNC(=O)c1cccs1 | i[7.34 µM] | -1.4%[7.34 µM] |
| O=C1Nc2ccc(Cl)cc2C12Nc1ccccc1-c1nnc(SCc3ccccc3F)nc1O2 (stereo not drawn) | -10.5% | -1.1% |
| COc1cc(NCc2ccccc2O)c2ncccc2c1 | u | -9.9% |
